PV pol inh – poliovirus RNA polymerase inhibition; hit rate 0.66% among 150,000; P03300; % elongation, % (compound at 16.7 µg/mL); poliovirus polymerase elongation, fluorescence polarization; stronger effect = lower value; in the data active = % elongation below about 90%; note: some results filed as inactive read as strong as hits
Target sequence (P03300 1749-2209 limits assumed): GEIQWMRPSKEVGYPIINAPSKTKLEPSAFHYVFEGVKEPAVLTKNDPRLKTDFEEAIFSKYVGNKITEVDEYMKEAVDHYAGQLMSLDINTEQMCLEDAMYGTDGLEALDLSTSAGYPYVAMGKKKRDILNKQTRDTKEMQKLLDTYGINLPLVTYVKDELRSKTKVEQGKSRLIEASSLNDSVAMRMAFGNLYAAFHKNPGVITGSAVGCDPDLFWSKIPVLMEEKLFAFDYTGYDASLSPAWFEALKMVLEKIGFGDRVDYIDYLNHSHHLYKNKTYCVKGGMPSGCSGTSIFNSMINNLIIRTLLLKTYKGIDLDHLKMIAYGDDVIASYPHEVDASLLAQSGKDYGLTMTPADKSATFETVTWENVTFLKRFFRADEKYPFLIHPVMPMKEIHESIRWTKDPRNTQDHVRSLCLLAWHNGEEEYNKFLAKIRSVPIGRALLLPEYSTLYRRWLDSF
MbtI inh – inhibitors of Mycobacterium tuberculosis siderophore enzyme MbtI | P9WFX0 | purified MbtI enzyme, fluorescence intensity read-out | inhibition, %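 (about 17 µg/mL by stock and volumes)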 | hit rate 0.89% among 100,000;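 active = above 50% in both replicates, above 80% if mildly self-fluorescent; inactive = the rest, strongly fluorescent compounds included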;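 note: 0% = mean of negative and 100% = mean of positive controls; one replicate is shown; some compounds called inactive have numbers as strong as hits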
Mtb MenB inh – blocks the Mycobacterium tuberculosis MenB enzyme. MenB enzyme assay, absorbance read-out; some hits fall short of the stated cut. P9WNP5. inhibition, %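 (about 12 µg/mL by stock and volumes)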. hit rate 0.43% among 100,000;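 active = mean of two replicates above 30%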;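 note: 0% = no compound and 100% = wells with inactive enzyme; the first replicate is given; strong numbers were not always called active; inactives centre near -10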
Target sequence (P9WNP5 whole entry, looked up): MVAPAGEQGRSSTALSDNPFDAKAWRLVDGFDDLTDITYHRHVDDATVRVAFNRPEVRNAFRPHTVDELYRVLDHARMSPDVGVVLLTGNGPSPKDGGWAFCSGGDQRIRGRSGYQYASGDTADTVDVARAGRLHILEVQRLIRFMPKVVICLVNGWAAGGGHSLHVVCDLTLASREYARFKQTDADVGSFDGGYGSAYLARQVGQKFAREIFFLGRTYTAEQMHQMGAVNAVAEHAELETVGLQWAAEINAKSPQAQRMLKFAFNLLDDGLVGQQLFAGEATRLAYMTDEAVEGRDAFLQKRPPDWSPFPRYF
PV pol inh intensity – second read-out of PV pol inh, no call of its own (marks repeat the call); % elongation; measured here: total intensity read-out; formula for this scale not given here;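 total fluorescence in place of polarization; lower means less elongation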
* marks the source's active call; other numbers are inactive results; / = not tested or not shown; & = joins results of further samples.

A first look, six compounds:
SMILES	PV pol inh	PV pol inh intensity	MbtI inh	Mtb MenB inh
CCc1ccc(NC(=O)C(C)Sc2ncnc3ccccc23)cc1 (configuration not stated)	101	105	-5	/
COc1ccccc1C1OC(=O)C[C@@H]1C(=O)Nc1nncs1 (some centres not stated)	101	105	5	3
CCN(CC)CCNC(=O)c1cc(Br)c(N)cc1OC	99&101	101&101	-15&-9	-13&2
COc1ccc(NC(=O)c2ccccc2C(F)(F)F)cc1OC1CCCC1	104	113	-9	4
CCn1cc(C(=O)N2CCCCC2C)c(=O)c2ccc(C)nc21 (configuration not stated)	109	111	7	-12
CN(C)Cc1ccc(CNCc2cnn(-c3ccccc3)n2)cc1	98	105	-10	-3

The listing, previewed entries included:
SMILES	PV pol inh	PV pol inh intensity	MbtI inh	Mtb MenB inh
CCc1ccc(NC(=O)C(C)Sc2ncnc3ccccc23)cc1 (configuration not stated)	101	105	-5	/
COc1ccccc1C1OC(=O)C[C@@H]1C(=O)Nc1nncs1 (some centres not stated)	101	105	5	3
CCN(CC)CCNC(=O)c1cc(Br)c(N)cc1OC	99&101	101&101	-15&-9	-13&2
COc1ccc(NC(=O)c2ccccc2C(F)(F)F)cc1OC1CCCC1	104	113	-9	4
CCn1cc(C(=O)N2CCCCC2C)c(=O)c2ccc(C)nc21 (configuration not stated)	109	111	7	-12
CN(C)Cc1ccc(CNCc2cnn(-c3ccccc3)n2)cc1	98	105	-10	-3
Cc1ccc(Oc2ncccc2NS(=O)(=O)c2ccc(-c3ccccn3)s2)c2c1CCC2	110	114	-7	3
Cc1cccc(C(=O)NC(c2n[nH]c(=S)n2C)C(C)C)c1 (configuration not stated)	102	99	54	11
COc1ccccc1CN(C)C(=O)CNC(=O)c1ccc(Br)o1	90	95	-19	-54
Cc1ccc(Cl)cc1NC(=O)c1ccc(Cn2cc(Cl)cn2)cc1	100	107	-4	-4
O=C(c1cc2n(n1)C(C(F)(F)F)CC(c1ccco1)N2)N1CCCCC1 (configuration not stated)	103	107	-8	0
Cn1c2ccccc2c2n[nH]c(=O)nc21	100	101	10	-32
CCOC(=O)C1CCN(S(=O)(=O)Cc2ccccc2)C1=O (configuration not stated)	111	111	-4	-12
Oc1ccc(Br)cc1C=NCCC1=CCCCC1	102	104	/	-8
COc1cc2[nH]c(=O)n(CCCC(=O)N3CCc4ccccc4C3)c(=O)c2cc1OC	103	100	74	-22
COc1ccc(OC)c(S(=O)(=O)/N=C2\C=C3N(CCO)CCOC3(O)c3ccccc32)c1 (configuration not stated)	100	102	9	-169
Cn1c2ccccc2c2nnc(SCC(=O)Nc3nnc(COc4ccccc4)s3)nc21	100	101	-1	-2
Cn1cnnc1SC(C(=O)Nc1cccc(C(F)(F)F)c1)c1ccccc1 (configuration not stated)	105	98	-10	-2
Cc1cccc(CCNC(=O)Nc2cn(C)c(=O)c3ccccc23)c1	103	96	6	-31
O=C(Cn1nc(C(=O)O)c2ccccc2c1=O)Nc1ccc(N2CCCCC2)cc1	107	112	-1	-23
COc1ccc(CCNC(=O)Cc2coc3c(C)c(C)ccc23)cc1OC	104	103	1	-25
O=C(NCCCN1CCCCC1)c1ccc2c(c1)sc1nc(-c3ccccc3)cn12	95	94	-7	3
CC(=O)Nc1ccc(NC(=O)COC(=O)C2(c3ccc(Cl)cc3)CCCC2)cc1	105	107	-4	/
CN1CCC(=NNc2ncnc3sc4c(c23)CCCC4)CC1	107	104	0	-20
CN(C)CC(C)(C)C1OCC2(CO1)COC(C(C)(C)CN(C)C)OC2 (configuration not stated)	102	101	-2	-14
SMILES	PV pol inh	PV pol inh intensity	MbtI inh	Mtb MenB inh
C(=N\NC1=NCCN1Cc1ccccc1)/c1ccc2c(c1)OCO2	104	103	5	0
CC(=O)Nc1ccccc1NC(=O)c1ccco1	100	99	-2	-10
Cc1ccn(C(=O)COc2ccc(Cl)cc2)n1	99	103	-6	6
Cc1cc(I)ccc1NC(=O)C(C(C)C)N1C(=O)c2ccccc2C1=O (configuration not stated)	110	112	/	-30
N#Cc1ccccc1COc1ccc(CO)cc1	101	104	-6	-12
O=C(NCCC12CC3CC(CC(C3)C1)C2)C1CCCCC1	102	103	27	-1
O=C(O)c1ccc(NC(=O)c2cn(-c3ccccc3)nc2-c2cc3ccccc3o2)cc1	101	103	0	-14
O=C(c1ccccc1)N(Cc1ccco1)C1(C(=O)Nc2ccccc2)CCCCC1	99	102	-4	/
Cc1cccc(-c2c3c(nc4ncnn24)-c2ccccc2C3=O)c1	103	102	-5	10
Cc1ccc(/C=C2\CC3C4CC=C5CC(O)CCC5(C)C4CCC3(C)C2O)o1 (configuration not stated)	110	114	20	-10
CCN(CC(=O)c1ccc(Cl)s1)C1CCCCC1	113	113	9	-3
CCS(=O)(=O)N(C)c1ccc(C(=O)Nc2ccc(OC)cc2OC)cc1	106	103	-10	-5
COC(=O)/C=C/S(=O)(=O)c1ccc(Br)cc1	104	103	100*	-11
CCCC1CCC(c2ccc(C(=O)CCN(C)C)cc2)CC1 (configuration not stated)	105	105	/	-15
O[C@H]1C2C3CC4C5C3C1C5C1(OCCO1)C42 (some centres not stated)	102	104	-9	-11
c1ccc2c(c1)N1CCCCCC1N2Cc1ccncc1 (configuration not stated)	102	102	4	2
CCOC(=O)Nc1cc(C(=O)OCC)c(C)nc1C	105	100	12	4
CN(C)S(=O)(=O)c1ccc2c3c(cccc13)C(=O)N2C(=O)c1ccco1	/	/	7	-17
COC(=O)c1cn(CC(=O)NCc2ccco2)c2ccccc12	104	110	/	0
NS(=O)(=O)c1ccc(NC(=S)N2CCC(O)CC2)cc1	102	107	-1	-19
N#CCCN(CCc1ccccn1)C(=O)Nc1ccccc1	101	96	1	-7
CN(C(=O)c1cn(C)c(=O)c2ccccc12)c1ccccc1	105	107	-5	-8
CCOC(=O)c1c(CN(C)C)n(C)c2c(O)c(N=NC(N)=O)c3ccc(Br)cc3c12	102	102	5	3
CCOc1ccc(C(=O)CC(N)C(=O)O)cc1 (configuration not stated)	101	100	/	-5
CCN1C(=O)/C(=c2\sc3nc(-c4ccccc4OC)nn3c2=O)c2cc(Br)ccc21	105	105	-1	12
SMILES	PV pol inh	PV pol inh intensity	MbtI inh	Mtb MenB inh
COc1ccc(NC(=O)CC2c3ccccc3Oc3ccccc32)c(OC)n1	104	100	-8	-17
O=C(O)CCCC(=O)Nc1ccc(Oc2ncnc3cc(Cl)ccc23)nc1	102	103	-8	9
NCCS(=O)(=O)NC1CCCCC1	100	102	5	-3
CCC1CCCCN1C(=O)CSc1nnc(C)n2c1cc1sccc12 (configuration not stated)	102	103	-6	2
CCc1cccc(NC(=O)C2CCCN2S(=O)(=O)c2ccc3c(c2)CC(C)N3C(C)=O)c1 (configuration not stated)	103	98	3	0
COc1ccc(C)c2sc(N3CCN(c4nc5c(OC)ccc(C)c5s4)CC3)nc12	100	104	15	-9
CCN(C(=O)c1cc(S(=O)(=O)N2CCc3ccccc32)cn1C)c1ccc(OC)cc1	99	103	-12	-20
COc1ccc(CCNC(=O)c2ccccc2OC)cc1	105	105	-2	-8
CN(Cc1ccccc1)S(=O)(=O)Cc1ccccc1	101	101	30	-24
COc1cc(CN2CCCN(C)CC2)cc(OC)c1OC	99	100	-1	8
CCN(C(=O)Nc1cn(C)c(=O)c2ccccc12)c1cc(C)ccc1C	102	104	113	-10
CCOC1C(OCC)N(S(=O)(=O)c2ccc(C)cc2)CCN1S(=O)(=O)c1ccc(C)cc1 (configuration not stated)	100	98	-19	-26
CC1CC(N(C(=O)c2ccco2)c2ccccc2)c2ccccc2N1 (configuration not stated)	102	103	11	0
O=C(Nc1nn2c(-c3ccco3)nnc2s1)c1ccco1	91	77	-1	-11
COCC(C)n1c(COc2ccccc2F)nnc1SCc1c(C)noc1C (configuration not stated)	101	106	14	-8
O=C(O)c1ccn2c(C(=O)c3ccccc3)c(-c3ccccc3)cc2c1	101	105	5	-192
Cc1cccc(Cn2nc(-c3ccc4c(c3)OCO4)ccc2=O)c1	92	62	25	-28
CC(Sc1nc2ccccc2c(=O)[nH]1)C(=O)Nc1ccc(N2CCOCC2)cc1 (configuration not stated)	99	107	13	-14
Fc1ccc(OCCc2nc(-c3ccc(C4SCCS4)cc3)no2)cc1	100	94	16	-3
O=C1Nc2ccccc2O/C1=C\c1ccc(C(=O)NCCC2=CCCCC2)cc1	101	100	-29	4
CC1CCc2cc(F)ccc2N1C(=O)c1cc2ccccc2oc1=O (configuration not stated)	102	102	-8	-18
NC(=O)COC(=O)c1cnc(Cl)c(Cl)c1	101	102	1	/
COc1cccc(CNC(=O)CCS(=O)(=O)Cc2ccc(C)cc2)c1	102	106	0	6
CCN(CC)C(=O)c1ccccc1Sc1ccccc1C#N	100	99	-14	-3
CC(=O)Oc1c(C)c(C)c2c(c1C)CCC(C)(CCCC(C)CCCC(C)CCCC(C)C)O2 (configuration not stated)	98	97	-12	-2

Record cards, from the list above. Order of values: PV pol inh, PV pol inh intensity, MbtI inh, Mtb MenB inh
Record of `COc1ccc(NC(=O)CC2c3ccccc3Oc3ccccc32)c(OC)n1` : 104, 100, -8, -17
Record of `COc1ccc(C)c2sc(N3CCN(c4nc5c(OC)ccc(C)c5s4)CC3)nc12` : 100, 104, 15, -9

Other records follow.
SMILES	PV pol inh	PV pol inh intensity	MbtI inh	Mtb MenB inh
CCC(=O)NC(CC)Cc1ccccc1 (configuration not stated)	104	96	/	-3
CCOc1ccc(C2c3c(oc4ccc(F)cc4c3=O)C(=O)N2CCOC)cc1 (configuration not stated)	99	100	7	1
c1ccc(C2CC(c3cccs3)=Nc3nc4ccccc4n32)cc1 (configuration not stated)	97	164	46	-78
COc1ccc(N2CCN(C(=O)c3ccccc3NC(=O)c3ccccc3)CC2)cc1	103	104	-7	-10
Cc1ccc(C=C2C(=O)N(C)C(=O)N(C)C2=O)cc1	100	97	9	2
O=C(O)CCNc1ccc(Br)cc1C(=O)O	96	88	/	-24
N#Cc1ccccc1NC(=O)CCS(=O)(=O)c1ccccc1	102	103	0	-11
Cc1ccc(S(=O)(=O)N(C)c2nc3ccccc3nc2SCC#N)cc1	97	127	98*	-46
Cn1c(C(=O)NCc2ccccc2)cc(=O)n(C)c1=O	103	102	-7	-28
O=C(OCC(=O)N1CCC(c2ccccc2)=N1)c1ccc(Br)o1	102	104	13	5
Cn1c(=N)n(CCCOc2ccc(Br)cc2)c2ccccc21	99	101	0	-25
CSc1ncc(C(=O)N2CCOCC2)cn1	99	102	-4	3
COC(=O)c1cc(-c2ccc(Br)cc2)on1	103	102	-3	-24
O=C(Nc1sccc1-n1cccc1)NC1Cc2ccccc2C1	100	101	3	-2
COc1ccc(CCNCc2ccccc2)cc1	107	110	/	-7
Cc1nc(N)c(C(=O)O)nc1C	101	104	2	4
CN1CCC(=C2c3ccccc3Sc3ccccc32)CC1	101&99	100&101	-12&-12	-6&-3
O=C(Cc1ccccc1)NCc1ccccn1	100	101	-2	-15
Cc1ccc(S(=O)(=O)NC(=O)Oc2ccc(-c3csnn3)cc2)cc1	104	112	-7	-11
COc1ccc(Cl)cc1NC(=O)COC(=O)c1cc(F)c(F)cc1Cl	102	105	-16	/
O=C(COCc1cc(-c2ccc3c(c2)OCO3)on1)Nc1ccc(OC(F)(F)F)cc1	100	101	13	-22
Cc1ccc(C2C3=C(CC(c4ccco4)CC3=O)Nc3ncnn32)cc1 (configuration not stated)	99	102	21	6
Cc1ccc(-n2ncc3c(=O)[nH]c(SCC(=O)N4CCCc5ccccc54)nc32)cc1	102	99	7	1
COCCN=c1scc(-c2ccccc2F)n1/N=C/c1ccco1	129	144	-3	-76
CC(=O)Nc1nc2c(s1)C(=O)CC(C)(C)C2	104	103	-3	/
O=c1c(-c2ccn(-c3ccccc3)n2)c(O)c2ccccc2n1-c1ccccc1	111	116	/	-8

A section from the list above:
SMILES	PV pol inh	PV pol inh intensity	MbtI inh	Mtb MenB inh
CCC(=O)NC(CC)Cc1ccccc1 (configuration not stated)	104	96	/	-3
CCOc1ccc(C2c3c(oc4ccc(F)cc4c3=O)C(=O)N2CCOC)cc1 (configuration not stated)	99	100	7	1
c1ccc(C2CC(c3cccs3)=Nc3nc4ccccc4n32)cc1 (configuration not stated)	97	164	46	-78
COc1ccc(N2CCN(C(=O)c3ccccc3NC(=O)c3ccccc3)CC2)cc1	103	104	-7	-10

Assay outcomes: PubChem, ICCB-Longwood Screening Facility, Harvard Medical School
